# TRPML1 ag – qHTS for Agonists of the Human Mucolipin Transient Receptor Potential 1 (TRPML1). Mucolipin-1 (Homo sapiens), Q9GZU1. TRPML1-expressing cells, Ca2+ dye fluorescence, FDSS; host cell line not named in the record; reference of the full effect not given here. activation, % (concentration not given with the values). actives 0.12% (n = 410,000). AID 624414, 2012; in the data active = activation above about 50%; inconclusive = about 30% to 50%; inactive = below about 30%; also: 0% is about no effect; the text of the record puts the active cut at 80%
# Target sequence (Q9GZU1 whole entry, looked up): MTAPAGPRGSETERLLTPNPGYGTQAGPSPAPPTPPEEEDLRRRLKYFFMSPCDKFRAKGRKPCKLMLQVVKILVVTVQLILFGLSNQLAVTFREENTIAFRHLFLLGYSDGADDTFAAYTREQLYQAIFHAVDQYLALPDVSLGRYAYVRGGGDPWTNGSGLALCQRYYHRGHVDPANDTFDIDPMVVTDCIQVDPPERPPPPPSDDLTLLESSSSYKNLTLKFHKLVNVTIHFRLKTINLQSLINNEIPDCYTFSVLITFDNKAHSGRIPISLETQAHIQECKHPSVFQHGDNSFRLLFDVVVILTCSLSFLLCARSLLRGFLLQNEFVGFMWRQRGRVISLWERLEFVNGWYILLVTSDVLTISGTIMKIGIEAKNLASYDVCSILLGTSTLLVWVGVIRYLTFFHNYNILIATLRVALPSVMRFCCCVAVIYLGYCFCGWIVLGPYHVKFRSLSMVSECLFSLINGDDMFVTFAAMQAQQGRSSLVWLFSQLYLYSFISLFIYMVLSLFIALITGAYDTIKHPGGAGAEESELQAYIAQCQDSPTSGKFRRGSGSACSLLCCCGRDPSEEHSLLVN
#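 Kinetic FDSS Ca2+ read in Tet-induced TRPML1-DL cells (ABD Ca8 dye plus quencher, 45-90 min RT loading): baseline, then compound, then 110 s agonist window; EC80 agonist 54-4 at 4uM final added afterwards for a 110 s antagonist window.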
# gsp ag – qHTS for Agonist of gsp, the Etiologic Mutation Responsible for Fibrous Dysplasia/McCune-Albright Syndrome: qHTS; Potency, µM (titrated, usually from 76.9 µM), inactives show at the top dose activation (cAMP increase), hits mostly activators; gsp mutant cells, cAMP HTRF, 30 min; control for the full effect not named in the record; actives 0.13% (n = 340,000); active = well fitted activation curve with a large enough effect; inconclusive = small, poorly fitted or top-dose-only effect, or another doubt; inactive = no such curve, though single readings can be large or run the other way; cell line not stated here;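 also: phosphodiesterase inhibitor Ro 20-1724 added with compounds to block cAMP breakdown; potency is read from the fitted curve at half-maximal effect; nearly all actives have a fitted effect of over 60% in size; about a fifth of the inactives were tested at one dose only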
#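 Cells in DMEM/10% FBS with G418 were pretreated with compounds in DMSO plus […] (300 uM stock) for 30 min at 37C. cAMP was measured by HTRF (cAMP-d2 plus anti-cAMP antibody-K) after 30 min at room temperature.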
# ClpP mod – qHTS Assay for Activators of ClpP | ATP-dependent Clp protease proteolytic subunit (Bacillus subtilis (strain 168)), P80244 | purified B. subtilis ClpP, FRET peptide cleavage, 20 min | Potency, µM (doses to about 57.5 µM), for inactives: at the highest dose activity change, negative = active | actives 1.9% (n = 340,000) | AID 651965, 2013; active = well fitted falling curve with a large enough effect; inconclusive = small, poorly fitted or top-dose-only effect; inactive = no such curve, though single readings can be large or run the other way; also: potency is read from the fitted curve at half-maximal effect; the source files actives as falling curves though it sought activators and does not explain the sign; nearly all actives have a fitted effect of over 65% in size; many hits overshoot -100%
# Target sequence (P80244 whole entry, looked up): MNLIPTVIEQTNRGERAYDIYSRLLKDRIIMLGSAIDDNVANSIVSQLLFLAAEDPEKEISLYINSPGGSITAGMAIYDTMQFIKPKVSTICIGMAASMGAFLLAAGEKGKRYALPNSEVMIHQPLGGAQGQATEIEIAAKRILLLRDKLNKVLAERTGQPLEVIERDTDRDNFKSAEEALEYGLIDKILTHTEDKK
#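 Buffer: 100 mM Tris/HCl pH8, 100 mM KCl, 0.05% low protease BSA, 2.5% glycerol, 0.01% Tween-20. ClpP 10 microg/mL final; 20 min RT; delta FRET normalized to ADEP and DMSO controls.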
# gsp antag – qHTS for Antagonists of gsp, the Etiologic Mutation Responsible for Fibrous Dysplasia/McCune-Albright Syndrome: qHTS; AID 624288, 2012; actives 0.4% (n = 340,000); Potency, µM (doses to about 76.9 µM), for the others: top-dose activity change, negative = inhibition, most hits filed as inhibitors; gsp-mutant cells, cAMP HTRF, 30 min; control for the full effect not named in the record; active = falling curve of any shape with a large fitted effect; inconclusive = falling curve, mostly with a smaller effect; inactive = flat or rising curve; cell line not stated here;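 also: intracellular cAMP measured with PDE inhibitor Ro 20-1724 present during compound exposure; potency is read from the fitted curve at half-maximal effect; % is scaled to controls: 0 for no effect and ±100 for the full control effect; nearly all actives have a fitted effect of over 65% in size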
#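 Cells in G418 medium, seeded 16-24 h, 37C; buffer exchange to DPBS + 1 mM CaCl2, 0.5 mM MgCl2, 0.05% BSA; cpds in DMSO + […] (300 uM stock), 30 min 37C; HTRF cAMP detection.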
# TRPML1 blocker – qHTS for Inhibitors of the Human Mucolipin Transient Receptor Potential 1 (TRPML1); Mucolipin-1 (Homo sapiens), Q9GZU1; TRPML1-inducible cells, Ca2+ dye fluorescence, FDSS; active compounds read low; inhibition of EC80 agonist-evoked calcium signal; activity change, negative = inhibition, % (no concentration beside the values); actives 0.02% (n = 390,000); AID 624415, 2012; in the data active means activity change below about -50%; inconclusive means about -30% to -50%; inactive means above about -30%;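 also: stimulus is agonist 54-4 at its EC80 concentration; % is scaled to controls: 0 for no effect and ±100 for the full control effect; compound concentration not given in the record; the text of the record puts the active cut at -80%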
#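 Calcium fluorescence in TRPML1-DL cells induced overnight with Tet: a 110 s read after compound pin addition, then a 110 s antagonist read after challenge with 54-4 at 4 uM final (EC80).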
# Menin MLL FP FL – qHTS Assay for Inhibitors Targeting the Menin-MLL Interaction in MLL Related Leukemias: Competition With Fluorescein Labeled MLL-derived Peptide; Fluorescence polarization, fluorescein-MLL peptide displacement from menin; FP activity change, % at 61.4 µM; 290,000 tested, under 10 active; inconclusive = falling polarisation curve, or a change in total fluorescence; inactive = total fluorescence flat and polarisation flat or rising; no compound was filed as active; the % refers to the polarisation; negative = inhibition;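 also: % of control where 0% means no effect; inhibitors lower the polarisation; unlabelled MLL peptide was the positive control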
# Starred values were filed as active, the others as inactive; ? = inconclusive; . = no result given; [ ] = dose if it differs, or a comment.
SMILES,TRPML1 ag,gsp ag,ClpP mod,gsp antag,TRPML1 blocker,Menin MLL FP FL
O=C(O)C1CCCCC1C(=O)Nc1ccccn1 (configuration not stated),-0.4,0.0%,1.0%,-10.8%,14.3,1.2
CS(=O)(=O)c1ccc(Cl)c(NC(=O)COC(=O)c2ccc(S(=O)(=O)N3CCCC3)cc2)c1,0.1,12.6%[15.4 µM],-0.1%,12.0%,-9.3,.
CC(C)(C)c1ccc(C2=CC(c3ccccc3)n3ncnc3N2)cc1 (configuration not stated),0.0,?,3.9%,-17.2%,-21.3,.
Cc1cccc(N2CCN(C(=O)c3noc4c3CCCCC4)CC2)c1C,1.4,.,0.9%,.,-12.5,.
COc1ccc(N(C)S(=O)(=O)c2cccc(C(=O)NC3CCCC3)c2)cc1,0.9,-18.9%[15.4 µM],-1.4%,-3.1%,8.9,-0.2
CC1(C)Cc2c(cnn2-c2ccc(F)cc2)C(NC(=O)CCN2CCCCO2)C1 (configuration not stated),0.2,?,25.1µM*,4.5%,-7.7,-5.1
COc1ccc(OCCSc2nnc(C)n2-c2ccccc2)cc1,1.7,6.2%,0.0%,-9.4%,25.9,0.6
Cc1csc(-c2cnn(-c3ccccc3)c2NC(=O)c2ccccc2)n1,1.5,20.0%,0.7%,-1.7%,43.1,-0.1
O=C(COc1ccc(F)c(Cl)c1)N1CCN(c2ccccn2)CC1,0.1,-40.3%[inhibitor],?,-3.3%,2.5,.
CC(=O)c1c(N2CCN(Cc3ccccc3)CC2)nc(=S)n(-c2ccccc2)c1C,0.7,5.5%,-0.7%,-0.5%,26.9,?
c1ccc(C2OC3c4cccc5cccc(c45)C3N2c2ccccc2)cc1 (configuration not stated),-0.3,?,5.8%,-8.5%,5.9,4.0
CCNC(=O)C1(C)CCCN(C(=O)c2csc3ccccc23)C1 (configuration not stated),-1.0,.,-4.6%,.,47.3,.
Cc1ccc(C)c(NC(=O)CN(C)C(=O)c2cc3ccccc3o2)c1,-0.7,-20.3%[15.4 µM],.,2.1%,5.8,4.0
COc1cc(NS(=O)(=O)c2ccc(NC(=O)COc3ccc(Cl)cc3Cl)cc2)nc(OC)n1,-0.1,.,0.1%,.,-15.3,.
COc1ccc(NC(=O)C2CCCN2S(=O)(=O)c2ccc(F)cc2)cc1 (configuration not stated),1.4,7.1%,-2.8%,1.8%,2.9,4.3
COc1ccccc1CNC(=O)c1ccc(NS(=O)(=O)c2c(C)noc2C)cc1,1.0,19.1%,-9.3%,-15.6%,13.4,2.2
CCn1c(Oc2cccc(Br)c2)nc2c1c(=O)n(C)c(=O)n2C,1.6,10.9%,-1.7%,-22.6%,13.1,-2.8
Cn1c(SCc2ccc(F)cc2)nnc1-c1ccncc1,-0.2,28.2%,?,10.2%,-6.4,17.8
CC(Cc1nnc(SCC(=O)O)n1N)c1ccccc1 (configuration not stated),0.9,?,.,4.4%,9.9,-1.9
O=C(NCCC1CCCC1)c1cccs1,-1.0,-26.1%,-0.3%,0.5%,-7.4,2.8
COc1ccc(NC(=O)Cn2c(SCc3c(F)cccc3Cl)nc3ccncc32)cc1OC,-0.4,.,-2.9%,.,3.5,.
Cc1ccc(NS(=O)(=O)c2ccc(C(=O)N3CC(C)OC(C)C3)cc2)cc1 (configuration not stated),19.3,11.6%,1.1%,-5.3%,13.1,.
COc1ccc(NC(=O)c2ccco2)c([N+](=O)[O-])c1,-1.5,-8.5%,-5.0%,-14.5%,2.6,2.8
CCOc1ccccc1Nc1ccnc2cc(Cl)ccc12,2.2,?,.,-4.4%,-9.4,1.3
O=C(c1cccc(C(F)(F)F)c1)N1CCCCCC1,1.7,0.3%,0.2%,5.1%,-15.7,2.8
CSc1ccc(CN2CCN(C3CCCC3)C(CCO)C2)cc1 (configuration not stated),-0.2,-45.1%[inhibitor],-0.8%,-3.1%,-21.2,0.4
Cc1[nH]nc2c1C(c1ccc(F)cc1)C(C#N)=C(N)O2 (configuration not stated),-0.8,5.0%,-0.7%,6.2%,23.5,-1.4
O=C(CNc1ccc(Br)cc1)c1ccc(Br)s1,-0.3,10.8%,.,10.5%,6.0,2.4
COc1cc(NC(=O)CCS(=O)(=O)c2ccc(Br)cc2)cc(OC)c1,2.9,.,1.0%,.,-17.7,.
COc1ccc(CCNC(=O)c2cnn3ccccc23)c(OC)c1OC,-0.7,4.2%,3.9%,-5.9%,-9.5,0.3
Cc1cc([N+](=O)[O-])nn1CC(=O)Nc1c(C)n(C)n(-c2ccccc2)c1=O,-0.4,-4.9%[15.4 µM],0.2%,-0.3%,5.1,0.9
CC(=O)c1cccc(OCc2cc(C(=O)N3C[C@@H](C)O[C@@H](C)C3)no2)c1,-0.8,?,1.0%,-4.8%,8.5,-0.6
Fc1ccc(Cn2nnnc2CN2CCc3ccccc3C2)cc1,0.3,?,-2.1%,0.2%,-1.8,-0.4
O=C1N=C(N2CCN(c3ccccc3)CC2)S/C1=C/c1cccs1,3.9,5.0%[15.4 µM],.,-18.5%,3.9,-2.8
C[C@@]12C(=O)Nc3cc(Cl)ccc3C(=O)N1[C@H]1c3ccccc3OC[C@@H]1[C@@H]2c1ccccc1,0.4,.,-12.2%,-12.7%,17.7,.
CC(Sc1cccc[n+]1[O-])C(=O)NC1CCCCC1C (configuration not stated),-0.5,-30.1%[inhibitor],-0.9%,13.0%,-8.3,.
Cc1noc(C)c1CCC(=O)N1CCCC(N2CCN(c3ccc(F)cc3)CC2)C1 (configuration not stated),-0.2,-0.2%,0.6%,-7.2%,6.2,.
Cn1c(CC(=O)NC(C)(C)CO)c(Sc2ccccc2)c2ccccc21,-0.4,-16.0%,2.4%,5.0%,-0.5,0.2
CC(C)(C)C(=O)Nc1c(Br)c(C2CC2)nn1-c1ccccc1,4.9,?,-4.6%,-2.2%,5.6,4.3
Nc1ccn(CC(=O)NCc2ccc3[nH]ccc3c2)c(=O)n1,-0.2,.,0.0%,7.9%,3.8,.
O=C(Nc1ccccc1)/C(=C\c1ccco1)NC(=O)c1ccco1,0.3,12.0%,.,1.5%,3.2,?
O=C(NCCCc1ccccc1)C1CCC(CNc2c(N3CCCCC3)c(=O)c2=O)CC1 (configuration not stated),-0.4,-43.3%[inhibitor][15.4 µM],.,-9.4%,7.9,4.1
CCOC(=O)c1[nH]c2ccc(OC)cc2c1NC(=S)N1CCN(c2ccccc2OC)CC1,-0.4,-31.1%[inhibitor],5.6%,-5.9%,-13.3,-4.9
CC(C)n1c(N2CCCC2)nc2c1c(=O)[nH]c(=O)n2C,-0.1,-3.7%,1.7%,17.2%,-5.5,-5.4
O=C(/C=C/c1ccc(Cl)cc1)Nc1ccc(N2CCCCC2)cc1,1.0,17.1%,2.3%,11.3%,2.6,-0.4
Cc1ccc(NC(=O)Cn2c(=O)c(C(F)(F)F)nc3ccccc32)cc1C,-1.1,.,-1.4%,.,-10.7,.
O=C1NC(c2ccccc2)=C(c2ccc3ccccc3n2)C(c2ccccc2)N1 (configuration not stated),-0.4,18.3%,.,-3.5%,2.0,5.6
CCOC(=O)N1CCN(CCC(=O)Nc2ccc(Br)cc2)CC1,-0.8,-0.5%,-0.4%,-5.5%,0.4,-0.6
COCCNS(=O)(=O)c1ccc(Cl)c(C(=O)NC2CCN(Cc3ccccc3)CC2)c1,0.1,-10.1%,.,5.0%,9.2,5.5
CCNC(=O)CC1C(=O)N(c2ccccc2)C(=O)N1Cc1ccc(OC)cc1 (configuration not stated),0.5,24.0%,-1.7%,4.4%,-10.0,1.8
COCCCNCCC(CCC(C)C)c1ccc2c(c1)OCO2 (configuration not stated),0.4,11.1%[15.4 µM],-1.1%,11.7%,-3.8,-0.3
Cc1ccc2nc(-c3ccc(NC(=O)COC(=O)c4cncc(Br)c4)cc3)sc2c1,1.8,18.0%[15.4 µM],.,10.5%,18.0,3.4
CCCN1C(=O)CC(c2ccco2)Sc2ccccc21 (configuration not stated),1.2,3.8%,-2.6%,-4.5%,3.1,2.1
CC(NS(=O)(=O)c1ccc(Cl)cc1)C(=O)NCCC1=CCCCC1 (configuration not stated),0.2,-5.9%[15.4 µM],.,0.8%,2.5,-1.4
O=C(Nc1ccccc1N1CCN(C(=O)c2ccccc2)CC1)c1ccccc1Cl,-0.8,-31.8%[inhibitor],1.7%,?,-9.8,-7.4
O=C(NC(=O)c1ccccc1F)OCc1ccc(Cl)cc1Cl,2.2,-8.2%[15.4 µM],.,4.1%,12.6,3.4
COc1ccc(CCNC(=O)C2CCCN(C(=O)c3ccc(Cl)cc3)C2)cc1 (configuration not stated),0.0,-5.9%,.,-9.7%,3.6,-3.8
CCCN1CC(=O)N2C(c3ccccc3)c3[nH]c4ccccc4c3C[C@H]2C1=O (some centres not stated),7.3,19.4%,.,-7.7%,-0.1,-6.9
Cc1occc(=O)c1OCc1c(Cl)cccc1Cl,1.8,-16.6%,-3.8%,12.0%,-10.7,-4.8
O=S(=O)(Nc1ccccc1Cl)c1ccc(F)cc1,0.8,-33.3%,-1.1%,-0.3%,13.5,0.9

# Remaining list, next part.
SMILES,TRPML1 ag,gsp ag,ClpP mod,gsp antag,TRPML1 blocker,Menin MLL FP FL
COc1ccc(CCNC(=O)c2cnn(-c3cccc(C)c3)c2C2CCNCC2)cc1OC,0.1,.,-1.2%,.,-10.9,.
CN(C)c1nc(Nc2ccccc2)nc(N(C)C)n1,-0.2,0.6%,-1.6%,4.0%,-0.1,6.9
Cc1c(O)c(=O)ccn1C,0.0,.,3.2%,1.7%,2.7,1.3
COc1cccc(CN2C(=O)CN(C3CCCCC3)C(=O)C2c2ccc(F)cc2)c1 (configuration not stated),0.2,10.6%,0.1%,-11.0%,-11.4,1.7
CCN(Cc1ccccc1)CC(O)COC(c1ccc(OC)cc1)c1ccc(OC)cc1 (configuration not stated),1.1,-5.4%[15.4 µM],.,-5.3%,37.1,-2.5
CC12CC3CC(C)(C1)CC(C(=O)NNC(=O)c1ccncc1)(C3)C2,-0.4,21.5%,0.6%,4.0%,-2.9,0.7
O=C(Nc1ccccc1N1CCCCC1)c1cccs1,0.6,-3.3%,-2.9%,7.9%,16.5,-2.8
CCCN(C(=O)/C=C/c1ccco1)c1c(N)n(Cc2ccccc2)c(=O)[nH]c1=O,0.3,-22.2%,0.8%,-0.5%,-5.1,6.0
